From PubChem BioAssay
Rce1 inhib: blocks yeast Ras-converting enzyme; hit rate 0.27% among 290,000; yeast membranes, quenched prenylated peptide cleavage fluorescence; Q03530; calls only; AID 2563;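 active = fall in fluorescence gain of 50% or more versus controls, with final raw signal at or below 3038400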;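 also: plate controls were neutral control wells for no effect and wells lacking membranes for full effect; tested at 10 µM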
Target sequence (Q03530 whole entry, looked up): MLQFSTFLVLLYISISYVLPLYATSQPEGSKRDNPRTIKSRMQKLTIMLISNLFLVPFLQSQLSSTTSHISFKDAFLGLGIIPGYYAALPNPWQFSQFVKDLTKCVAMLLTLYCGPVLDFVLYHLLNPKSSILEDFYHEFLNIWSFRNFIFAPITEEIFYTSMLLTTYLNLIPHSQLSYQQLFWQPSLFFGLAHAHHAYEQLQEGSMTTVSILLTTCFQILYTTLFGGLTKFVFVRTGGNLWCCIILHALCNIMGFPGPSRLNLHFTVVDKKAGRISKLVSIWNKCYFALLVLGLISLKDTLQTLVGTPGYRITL
eIF4H inh: inhibitors of RNA binding by human eIF4H; AID 2012; eIF4H fluorescence polarization binding assay; inhibition, % at 35 µM; Q15056; hit rate 0.94% among 290,000;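 active = 50% or more with normal probe brightness, or confirmed in later tests; about a fifth of its hits are not listed in these tables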;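 also: calls also rest on retests at 20 µM and on dose response follow-up; 0% = protein and probe with vehicle and 100% = probe without protein; strong numbers were not always called active; many hits fall short of the cut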
PABP FP inh: blocks human PABP binding to poly(A) RNA. inhibition, % at 35 µM. AID 2014. fluorescence polarization. P11940. hit rate 1% among 290,000;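 active = 50% or more with normal probe brightness, or confirmed in later tests; about a fifth of its hits are not listed in these tables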;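 also: calls also rest on retests at 20 µM and on dose response follow-up; controls were probe without protein and protein plus probe with vehicle; some compounds called inactive have numbers as strong as hits; many hits fall short of the cut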
Target sequence (P11940 whole entry, looked up): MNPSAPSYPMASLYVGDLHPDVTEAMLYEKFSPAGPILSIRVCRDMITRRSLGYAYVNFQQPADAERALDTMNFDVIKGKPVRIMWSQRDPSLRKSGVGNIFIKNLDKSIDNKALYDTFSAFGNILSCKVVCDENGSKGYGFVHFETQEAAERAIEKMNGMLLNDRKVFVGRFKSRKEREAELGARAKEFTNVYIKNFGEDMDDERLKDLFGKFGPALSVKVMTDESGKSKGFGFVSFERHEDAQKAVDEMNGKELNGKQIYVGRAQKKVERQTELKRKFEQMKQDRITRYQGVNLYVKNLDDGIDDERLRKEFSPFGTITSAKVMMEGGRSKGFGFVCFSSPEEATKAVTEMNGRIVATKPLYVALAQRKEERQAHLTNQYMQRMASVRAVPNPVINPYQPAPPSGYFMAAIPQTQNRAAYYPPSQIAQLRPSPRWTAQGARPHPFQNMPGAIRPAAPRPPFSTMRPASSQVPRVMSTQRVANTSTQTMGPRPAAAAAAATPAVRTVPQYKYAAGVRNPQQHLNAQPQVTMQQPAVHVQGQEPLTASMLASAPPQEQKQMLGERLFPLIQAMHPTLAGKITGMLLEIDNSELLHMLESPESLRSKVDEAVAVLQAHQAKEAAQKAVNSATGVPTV
Env fusion inh: HIV envelope-mediated fusion inhibition. inhibition, % at 12.3 µM. HeLa-JRFL Env/CEM21 cell fusion, luciferase. hit rate 1.1% among 360,000;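 active = mean replicate inhibition score of at least 50 and every replicate individually at or above 50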;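 also: 0% = plate neutral controls and 100% = maraviroc near 300 nM; one replicate is shown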
MT1-MMP act inh: inhibitors of human MT1-MMP activation; P50281; HT1080 RFP-PRO-GFP cells, GFP/RFP ratio fluorescence, overnight; percent of plate control window, DMSO zero; GFP/RFP ratio change, % at 20 µM; hit rate 0.061% among 360,000; AID 651647;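 active = GFP/RFP ratio change of at least 30% with cell ATP level not reduced by more than half and red fluorescence within 50% of control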; also: strong numbers were not always called active
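Assay system: HT1080 RFP-PRO-GFP cells | Dosing: 20 µM single dose, 1% DMSO | Incubation: Cells overnight before dosing, compound overnight, 37 °C, 5% CO2 | Evaluation: GFP/RFP fluorescence ratio | Control set: DMSO-only wells and HT1080 RFP-L50D-GFP cell wells as references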
UUG fidelity: modulators of start codon recognition fidelity in yeast. S. cerevisiae UUG-firefly luciferase reporter, luminescence/redox ratio. activity score, % at 18.7 µM. hit rate 0.13% among 350,000. AID 602363;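 active = replicate mean at a twofold rise or more, about +100% in these data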;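 also: firefly luciferase made from a UUG start codon reports start codon fidelity; reporter light over untreated wells divided by growth signal over untreated wells; some hits fall short of that in this replicate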
CSC inhib: cancer stem cell inhibition; cancer stem cell-like cells viability, luminescence; inhibition, % at 7.5 µM; hit rate 1.1% among 300,000; AID 2717;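 active = mean at 75% or more and at least half the replicates too; tested in HMLE shEcad cells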;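 also: 0% = median of negative and 100% = median of positive control wells; the first replicate is given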
eIF4H inh retest: recorded beside eIF4H inh, whose call it bears; inhibition, %; compound at 20 µM; confirmation average;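 mean of two retest wells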
PABP FP inh retest: recorded beside PABP FP inh, whose call it bears; inhibition, %; compound at 20 µM; confirmation repeats;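 mean of two retest wells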
MT1-MMP act inh RFP: recorded beside MT1-MMP act inh, whose call it bears; RFP signal change, %; measured here: RFP expression control read;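 0 = vehicle wells; hits needed this value within 50% of zero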
Numbers without * were called inactive; i = inactive; . = no result given. The list is partial; count on the stated rates, not on these rows.

SMILES | Rce1 inhib | eIF4H inh | PABP FP inh | Env fusion inh | MT1-MMP act inh | MT1-MMP act inh RFP | UUG fidelity | CSC inhib | others
Cc1nn(C(C)c2n[nH]c(=S)n2-c2ccc(F)cc2)c(C)c1[N+](=O)[O-] (stereo not given) | i | -14 | -2 | -17 | 1 | 0 | -16 | 3
Cc1nc(SC(C)C(=O)NCc2ccc3c(c2)OCO3)nc(C)c1C (stereo not given) | . | . | . | 3 | -4 | 2 | -25 | -18
CC(OC(=O)C1CCC(=O)N1)C(=O)Nc1cc(Cl)cc(Cl)c1 (stereo not given) | i | -10 | 1 | -6 | 0 | 4 | . | 4
CCN(C(=O)COC(=O)CC1CCCCC1)c1c(N)n(Cc2ccccc2)c(=O)[nH]c1=O | . | . | . | -9 | 1 | 2 | -13 | -10
CCOc1ccc(-n2c(Cc3cc(=O)[nH]c(=O)[nH]3)nnc2SCC(N)=O)cc1 | i | -2 | 6 | -15 | -7 | 1 | -21 | -17
COc1cc(C(=O)NCCC(=O)NC2CCCCCCC2)cc(OC)c1OC | i | 1 | 18 | 38 | 7 | 1 | -6 | 6
O=C(Cc1cccc(NC(=O)C2CCCN(C(=O)c3ccccc3)C2)c1)Nc1ccc(C(=O)N2CCCCC2)cc1 (stereo not given) | . | . | . | -1 | 3 | -1 | -7 | .
CCCc1nn2c(=O)c(C(c3ccc(C)cc3)c3c(O)nc4sc(CCC)nn4c3=O)c(O)nc2s1 | i | 7 | 18 | . | -8 | 3 | 6 | -7
COCCn1c(SCC(=O)NC2CCCCC2C)nnc1-c1ccncc1 (stereo not given) | i | -8 | 4 | 16 | -3 | 4 | -16 | -3
CCOC(=O)Cc1c(C)nc(N)[nH]c1=O | i | -2 | -2 | -32 | 4 | 5 | -8 | -6
CCOc1ccc(NS(=O)(=O)c2ccc(C(=O)N3CCCC(C)C3)cc2)cc1 (stereo not given) | i | . | . | . | -8 | -25 | 2 | -11
COc1ccnc2c1c(=O)n(Cc1ccc(Cl)cc1)c(=O)n2C | i | -1 | 2 | 6 | 3 | 1 | -24 | 15
CC(=O)N1c2ccc(S(=O)(=O)N3CCC(C(=O)Nc4ncccc4C)CC3)cc2CC1C (stereo not given) | i | 2 | 1 | -13 | -1 | -3 | -22 | 4
Cn1c(SCC(=O)Nc2cc(S(=O)(=O)N3CCOCC3)ccc2N2CCOCC2)nnc1-c1ccncc1 | i | 5 | 9 | 10 | -2 | 1 | . | -4
CNC(=O)NC(=O)CSc1nnc(-c2ccco2)n1Cc1ccccc1 | i | -3 | -5 | -7 | 4 | 5 | -11 | -13
Nc1nc(Cl)cc(N2CCC(c3cc(-c4ccc(Cl)cc4Cl)n[nH]3)CC2)n1 | i | 0 | 12 | 102* | 3 | -16 | -18 | 45
Cc1ccc(CNC(=O)C(NS(=O)(=O)c2ccc3nc(C)sc3c2)C(C)C)cc1 (stereo not given) | i | -5 | 5 | -9 | -4 | 3 | -2 | -5
COC(=O)CNC(=O)COC(=O)/C=C/c1ccccc1[N+](=O)[O-] | i | 6 | -27 | 11 | 0 | 2 | . | -8
CCOC(=O)Nc1ccc2c(c1)Nc1ccccc1S2 | i | 2 | -8 | -153 | -8 | -4 | -16 | -3
O=C(Nc1ncnc2sc3c(c12)CCC3)c1ccco1 | i | 2 | -2 | . | 0 | 3 | . | .
CCN(CC)C(=O)c1ccc(COc2ccccc2Br)o1 | i | -5 | 5 | . | -1 | -9 | -10 | -9
O=S(=O)(NCC1CCCO1)c1ccc2c(c1)OCCO2 (stereo not given) | . | -5 | 3 | 8 | -17 | 0 | -8 | -12
Cc1ccc(C(=O)N(C)CC(=O)Nc2ccc(F)c(F)c2F)o1 | i | -9 | 11 | 5 | 0 | 4 | -11 | 9
NC(=NCCc1c[nH]c2ccccc12)NC(=O)c1ccc(F)cc1 | i | 5 | -7 | 3 | 11 | 0 | -2 | 33
O=C(Nc1ccc(Cl)cc1N1CCOCC1)C1CCCCC1 | i | 2 | -3 | . | -1 | 0 | 3 | -6
Cc1ccc(-n2c(Cc3cccs3)nnc2SCC(=O)Nc2ccc(F)c(F)c2)cc1 | i | 2 | -1 | . | -5 | -4 | -18 | -14
Cc1ccc(S(=O)(=O)NN=Cc2cc(Cl)ccc2O)cc1 | . | . | . | -45 | 2 | -3 | -18 | .
O=C(NCc1ccc2c(c1)OCO2)C1CC(=O)N(c2ccc(F)cc2)C1 (stereo not given) | i | -4 | -9 | 14 | 4 | 8 | -11 | -12
Cc1nn(C)c(C)c1S(=O)(=O)N1CCC(CO)(Cc2ccc(Cl)cc2)CC1 | i | -8 | -2 | 11 | -4 | -5 | . | .
COc1ccc(C/C(=N\O)c2ccc(OC)cc2)cc1 | i | 0 | 4 | -22 | 1 | 4 | -2 | 6
CN(CCN1CCOCC1)Cc1nc(-c2ccc(Cl)cc2)no1 | i | -7 | -2 | 9 | 1 | -2 | 12 | 9
O=C(CNc1cccc(S(=O)(=O)N2CCOCC2)c1)N1CCc2ccccc21 | i | -5 | -3 | -1 | 7 | 6 | -13 | .
CC(=O)N1c2ccc(S(=O)(=O)N3CCCC3)cc2CC1C(=O)Nc1cc(C)cc(C)c1 (stereo not given) | i | -1 | -11 | 3 | 2 | -3 | -5 | 0
O=C(CN1C(=O)NC2(CCCCCC2)C1=O)c1ccc(Cl)cc1 | . | . | . | . | 0 | 1 | -19 | -16
CCCCN(C=O)c1c(CC)nc2ccc(C(=O)N3CCN(C(=O)c4ccco4)CC3)cn12 | . | . | . | -23 | 4 | 3 | -14 | .
CCc1cccc(C)c1NC(=O)CC1Oc2ccc(C)cc2NC1=O (stereo not given) | i | -14 | -3 | 2 | 0 | 2 | -5 | -7
CCCN1CCN(C(=O)c2cn(CC(C)C)c(=O)c3cc(OC)c(OC)cc23)CC1 | i | -2 | 20 | -97 | 5 | 2 | -13 | -17
CC1(C(=O)O)CCC(C(=O)Nc2ccc(Cl)c(Cl)c2)C1(C)C (stereo not given) | i | -11 | -7 | -9 | 2 | 1 | -2 | -17
CC(=O)c1c(C)nc2ccc(Br)cc2c1C(=O)O | i | -9 | 5 | 10 | -1 | 3 | -16 | -7
CNc1cc(F)nc(F)n1 | i | 5 | -3 | -6 | -1 | 0 | 3 | -1
CCN(CC)CCn1c(=S)[nH]c2ncccc2c1=O | i | -10 | 1 | -40 | 3 | 1 | . | -9
CCn1c(COc2cccc(C)c2)nnc1SCC(=O)N1CCCC1 | i | 7 | -8 | 15 | 0 | -1 | -9 | -16
C/C(CC(=O)NC12CC3CC(CC(C3)C1)C2)=N\NC(=O)c1cnccn1 | i | 0 | 3 | 3 | 2 | 5 | . | -2
CN(C(=O)c1ccc(NC(=O)C2CCCN(C(=O)OC(C)(C)C)C2)cc1)C1CCCC1 (stereo not given) | . | . | . | -5 | 0 | -4 | 15 | -9
CCOC(=O)C1CCN(S(=O)(=O)c2csc(C(N)=O)c2)CC1 | i | -7 | 7 | -8 | 3 | 0 | -4 | -6
CC(C)CC(C)NNC(=O)c1cc2ccccc2[nH]1 (stereo not given) | i | 4 | 1 | 6 | 0 | 3 | . | -4
O=C(NCC1CCOCC1)c1cc(COc2cccc(C(F)(F)F)c2)on1 | i | 10 | 11 | 0 | 2 | -2 | -3 | -5
CCN(C(=O)COc1ccc(N(C)S(=O)(=O)c2ccc(NC(C)=O)cc2)cc1)C1CCCCC1 | . | . | . | -25 | -3 | -9 | 4 | 59
CCNC(=S)NNC(=O)c1cccn(Cc2ccc(Cl)cc2Cl)c1=O | i | -7 | -3 | -6 | 6 | -1 | -38 | -5
Cc1ccc(S(=O)(=O)NC(C)(C)CSc2nncn2C)cc1 | i | -2 | -6 | . | 0 | 5 | -9 | -16
O=C(Cn1ccc([N+](=O)[O-])n1)NCc1nc2ccccc2[nH]1 | i | 1 | -4 | 1 | 2 | -1 | . | 4
O=C(CCCSc1ccccc1)Nc1ccc(Cl)c(S(=O)(=O)N2CCOCC2)c1 | . | . | . | 51 | -6 | -24 | -14 | .
Cc1ccc(CN2C(=O)N/C(=C\c3cccn3-c3cccc(C(=O)O)c3)C2=O)cc1 | i | 90 | 2.6* | -2 | 5 | 2 | -13 | -18 | eIF4H inh retest=-4;PABP FP inh retest=52*
CCOc1ccc(NC(=O)c2ccc(CNc3c(NC4CCCCC4)c(=O)c3=O)cc2)cc1 | i | 8 | -4 | 9 | -2 | 1 | 3 | .
CCOc1ccc(CN2CCN(C/C=C/c3ccc(OC)cc3)CC2CCO)cc1 (stereo not given) | i | -4 | -12 | 3 | 0 | 1 | 7 | 7
O=C(Nc1cccc2ccccc12)c1cccc(F)c1 | i | -5 | 10 | 16 | 2 | 3 | -4 | -13
CCN(CC)C(=O)NC1CCCCCCC1 | . | 2 | 7 | -10 | 3 | 2 | -4 | 12
Cc1cccc(C(=O)NC(=S)Nc2ccccc2C(=O)O)c1 | i | -11 | -2 | 7 | 8 | 8 | -27 | 4
O=C(CNS(=O)(=O)c1ccccc1)OCC(=O)c1cccc([N+](=O)[O-])c1 | i | -8 | -2 | . | -7 | 2 | -6 | -4
CC1CC(C)CN(C(=O)CN2CCN(Cc3ccc(Cl)cc3)C2=O)C1 (stereo not given) | i | -4 | 3 | -55 | 2 | 0 | 10 | -12
COc1ccccc1-n1cc(C(=O)NCC(=O)N2CCN(Cc3ccccc3)CC2)c2ccccc2c1=O | i | -4 | 31 | 13 | -1 | 5 | . | -9
O=C(CCc1nnc(CCc2ccccc2)o1)N1CCCCC1CCn1cccn1 (stereo not given) | i | 0 | -2 | -3 | 6 | 7 | -3 | -9

Structures shown so far with two or more sulfur atoms, in the order listed:
SMILES | Rce1 inhib | eIF4H inh | PABP FP inh | Env fusion inh | MT1-MMP act inh | MT1-MMP act inh RFP | UUG fidelity | CSC inhib | others
CCCc1nn2c(=O)c(C(c3ccc(C)cc3)c3c(O)nc4sc(CCC)nn4c3=O)c(O)nc2s1 | i | 7 | 18 | . | -8 | 3 | 6 | -7
Cn1c(SCC(=O)Nc2cc(S(=O)(=O)N3CCOCC3)ccc2N2CCOCC2)nnc1-c1ccncc1 | i | 5 | 9 | 10 | -2 | 1 | . | -4
Cc1ccc(CNC(=O)C(NS(=O)(=O)c2ccc3nc(C)sc3c2)C(C)C)cc1 (stereo not given) | i | -5 | 5 | -9 | -4 | 3 | -2 | -5
Cc1ccc(-n2c(Cc3cccs3)nnc2SCC(=O)Nc2ccc(F)c(F)c2)cc1 | i | 2 | -1 | . | -5 | -4 | -18 | -14
CCOC(=O)C1CCN(S(=O)(=O)c2csc(C(N)=O)c2)CC1 | i | -7 | 7 | -8 | 3 | 0 | -4 | -6
Cc1ccc(S(=O)(=O)NC(C)(C)CSc2nncn2C)cc1 | i | -2 | -6 | . | 0 | 5 | -9 | -16
O=C(CCCSc1ccccc1)Nc1ccc(Cl)c(S(=O)(=O)N2CCOCC2)c1 | . | . | . | 51 | -6 | -24 | -14 | .
